High-throughput results from PubChem BioAssay.
Six1-Eya2 inh = qHTS Assay for Inhibitors of the Six1/Eya2 Interaction. AlphaScreen GST-Six1/His-Eya2 binding, biochemical; stronger effect = lower value; control for the full effect not named in the record. Homeobox protein SIX1 (Homo sapiens) + Protein phosphatase EYA2 (Homo sapiens), …. AID 651725, 2012. activity change, % (no concentration beside the values). 360,000 tested, 0.56% active; in the data active = activity change below about -65%; inconclusive = about -30% to -65%; inactive = above about -30%; note: % is set by controls: 0 for no effect and ±100 for the full control effect; compound concentration not given in the record
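Six1/Eya2 binding was read as AlphaScreen signal after compounds were pinned into GST-Six1 plus His-tagged Eya2 (5X stock 250/500 nM) in pH 8.0 Tris/NaCl/TCEP buffer, beads added, then incubated 1 h, 37 C, dark.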
TRPML1 ag = qHTS for Agonists of the Human Mucolipin Transient Receptor Potential 1 (TRPML1). Mucolipin-1 (Homo sapiens), Q9GZU1. TRPML1-expressing cells, Ca2+ dye fluorescence, FDSS; host cell line not named in the record; reference of the full effect not given here. activation, % (concentration not given with the values). 410,000 tested, 0.12% active; in the data active = activation above about 50%; inconclusive = about 30% to 50%; inactive = below about 30%; note: 0% is about no effect; the text of the record puts the active cut at 80%
Target sequence (Q9GZU1 whole entry, looked up): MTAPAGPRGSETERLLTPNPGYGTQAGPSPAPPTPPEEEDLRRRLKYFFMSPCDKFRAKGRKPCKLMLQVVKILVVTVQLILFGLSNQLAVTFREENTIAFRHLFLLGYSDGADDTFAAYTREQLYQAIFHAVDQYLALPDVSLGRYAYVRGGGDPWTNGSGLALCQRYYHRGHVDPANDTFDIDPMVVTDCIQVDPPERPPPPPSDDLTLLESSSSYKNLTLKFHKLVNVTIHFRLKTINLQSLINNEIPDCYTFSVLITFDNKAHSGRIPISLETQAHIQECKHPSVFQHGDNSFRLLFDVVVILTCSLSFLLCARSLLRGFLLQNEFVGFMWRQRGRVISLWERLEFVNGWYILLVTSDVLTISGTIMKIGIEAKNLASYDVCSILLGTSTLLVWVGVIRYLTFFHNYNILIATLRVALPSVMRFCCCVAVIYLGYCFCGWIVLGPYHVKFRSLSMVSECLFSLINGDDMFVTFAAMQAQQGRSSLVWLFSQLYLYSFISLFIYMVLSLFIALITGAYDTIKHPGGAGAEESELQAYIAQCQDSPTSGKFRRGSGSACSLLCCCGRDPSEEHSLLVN
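Tetracycline-induced TRPML1-DL cells are seeded and incubated overnight before loading with a no-wash Ca2+ dye and quencher. Agonist activity is taken from the 110 s fluorescence read following compound pin-transfer on an FDSS, before EC80 54-4 challenge.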
PINK1 expr mod = A Quantitative High throughput Screen to Identify Chemical Modulators of PINK1 Expression | PINK1 immunofluorescence, high-content cytometry, 24 h | Potency, µM (titrated, usually from 76.6 µM), for inactives: at the top dose activation (PINK1 increase), most hits filed as activators | 410,000 tested, 0.2% active; active = well fitted activation curve with a large enough effect; inconclusive = small, poorly fitted or top-dose-only effect; inactive = flat fitted curve, though single readings scatter; cell line not stated here;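 note: potency is the fitted concentration of half-maximal effect; % of control where 0% means no effect; nearly all actives have a fitted effect of over 65% in size; a mitochondrial uncoupler was the plate control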
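PINK1 protein level read as immunofluorescence by microplate cytometer in a fixed, stained stable cell line after 24 h exposure to five compound concentrations, with CCCP as control.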
CtBP-E1A inh = qHTS Assay for Inhibitors of the CtBP/E1A Interaction. activity change, % (concentration not given with the values). AID 651724, 2012. 340,000 tested, 0.49% active. AlphaScreen GST-E1A/His-CtBP binding, 1536-well; stronger effect = lower value; control for the full effect not named in the record; in the data active means activity change below about -65%; inconclusive means about -30% to -65%; inactive means above about -30%; note: % is set by controls: 0 for no effect and ±100 for the full control effect
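GST-E1A and His-tagged CtBP (125 nM each as 5X stock) were preincubated with pin-transferred compound for 2 h at 37 °C in the dark, then glutathione donor and nickel acceptor beads were added for 1 h before AlphaScreen reading.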
TRPML1 blocker = qHTS for Inhibitors of the Human Mucolipin Transient Receptor Potential 1 (TRPML1). Mucolipin-1 (Homo sapiens), Q9GZU1. TRPML1-inducible cells, Ca2+ dye fluorescence, FDSS; stronger effect = lower value; inhibition of EC80 agonist-evoked calcium signal. activity change, negative = inhibition, % (no concentration beside the values). 390,000 tested, 0.02% active; in the data active means activity change below about -50%; inconclusive means about -30% to -50%; inactive means above about -30%;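 note: stimulus is agonist 54-4 at its EC80 concentration; % is set by controls: 0 for no effect and ±100 for the full control effect; compound concentration not given in the record; the text of the record puts the active cut at -80%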
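Calcium fluorescence in TRPML1-DL cells induced overnight with Tet: a 110 s read after compound pin addition, then a 110 s antagonist read after challenge with 54-4 at 4 uM final (EC80).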
D2 agonist = Beta-Arrestin HTS for Positive Allosteric Modulators of the Human D2 Dopamine Receptor: Agonists | activation, % (test concentration not listed) | 360,000 tested, 0.084% active | DiscoveRx PathHunter D2 beta-arrestin, luminescence, 90 min; 100% = 57 uM dopamine signal | D(2) dopamine receptor (Homo sapiens), P14416; in the data active = activation above about 40%; inconclusive = about 15% to 40%; inactive = below about 15%; note: compound concentration not given in the record; the text of the record calls up to 30% inactive
Target sequence (P14416 whole entry, looked up): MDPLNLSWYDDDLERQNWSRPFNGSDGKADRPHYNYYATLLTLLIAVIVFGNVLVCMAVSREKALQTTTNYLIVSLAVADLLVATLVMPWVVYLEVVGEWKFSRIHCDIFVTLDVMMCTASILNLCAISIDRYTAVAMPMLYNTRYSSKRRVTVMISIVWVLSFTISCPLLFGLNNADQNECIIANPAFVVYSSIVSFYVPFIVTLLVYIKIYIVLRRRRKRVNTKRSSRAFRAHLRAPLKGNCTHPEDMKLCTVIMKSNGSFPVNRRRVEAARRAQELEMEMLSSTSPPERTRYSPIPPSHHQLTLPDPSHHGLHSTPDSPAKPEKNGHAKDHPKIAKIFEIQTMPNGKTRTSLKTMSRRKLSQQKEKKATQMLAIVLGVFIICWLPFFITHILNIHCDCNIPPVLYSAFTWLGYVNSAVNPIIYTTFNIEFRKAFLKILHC
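Agonist mode: compounds alone added to overnight-plated D2 PathHunter cells for 90 min at 37 C, with 57 uM final dopamine (EC100) defining full response. Beta-arrestin recruitment detected by chemiluminescent reagent, read after 1 h at ambient temperature.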
Active calls of the source: *; ? = inconclusive; nt = no result given; & = joins results of further samples; [ ] = another dose, or the depositor's remark.

Results follow in this order: Six1-Eya2 inh	TRPML1 ag	PINK1 expr mod	CtBP-E1A inh	TRPML1 blocker	D2 agonist
Cc1nonc1OCCN1CCN(c2ccc([N+](=O)[O-])cc2)CC1
→ -16.4	0.0	1.3%	-2.6	-9.1	0.2
O=C(C1CC(=O)N(c2ccc(Cl)cc2)C1)N1CCOCC1 (centres undefined)
→ 2.7	-0.5	1.2%	0.7	8.0	-2.2
CC(C)(C)c1ccc(C(=O)NCCOc2ccccc2F)cc1
→ 5.8	0.3	0.1%	11.2	-4.6	0.3
O=C1NC(c2cc3c(cc2Cl)OCO3)Oc2ccccc21 (centres undefined)
→ -2.5	-0.2	3.0%	0.1	12.4	-4.9
Cc1ccc(C)c(NC(=O)c2ccc(OC(=O)c3ccco3)cc2)c1
→ 0.6	-0.4	4.7%[38.3 µM]	4.1	9.7	-0.2
O=C(O)c1ccc(CSC2CCCCC2)cc1
→ -1.8	0.1	-0.7%	0.6	2.8	-3.6
CSc1ncccc1C(=O)NC(C)CCc1ccccc1 (centres undefined)
→ -5.7	1.3	-0.1%	nt	-17.4	-2.5
N#CCCn1c(SCC(=O)Nc2ccc(N3CCOCC3)cc2)nc2ccccc21
→ -8.5	0.1	0.0%	-0.6	20.7	-2.3
CCOc1ccccc1N1CCN(S(=O)(=O)c2ccc(C3CCCCC3)cc2)CC1
→ nt	-0.3	-1.0%	nt	-12.9	nt
O=C(CN1c2cccc3cccc(c23)S1(=O)=O)Nc1cccc(S(=O)(=O)N2CCOCC2)c1
→ -2.3	1.8	3.8%	-6.4	28.1	5.6
CCS(=O)(=O)N1Cc2ccccc2CC1C(=O)Nc1cccc(OC)c1 (centres undefined)
→ 0.8	0.5	0.5%	11.4	4.5	-2.1
O=[N+]([O-])c1cccc(S(=O)(=O)NC2CC3CCC2C3)c1 (centres undefined)
→ -2.4	0.0	1.2%	-0.2	-0.7	1.1
CCOc1ccc(C(c2c(O)cc(C)n(CCOC)c2=O)N2CCN(c3ccccc3F)CC2)cc1 (centres undefined)
→ nt	0.3	0.0%	nt	-3.5	nt
O=C(Nc1ccc(F)cc1)C1CCC(N2C(=O)c3ccccc3C2=O)CC1 (centres undefined)
→ 10.0	1.1	nt	8.9	6.7	-3.2
COC1=C/C(=C/c2c(O)c(C#N)c3ccccn23)C=CC1=O
→ -17.6	0.8	0.5%	nt	-0.3	-1.5
Cc1cccc(C(=O)OCC(=O)NC(=O)Cc2ccccc2)c1O
→ 5.3	-0.3	6.9%	5.7	6.0	0.6
Cc1ccc(NC(=O)CCNC(=O)c2ccco2)cc1Cl
→ 0.1	0.1	-1.1%	-2.1	-5.0	-4.3
CC(Oc1ccccc1)C(=O)Nc1ccc(OCc2cc(=O)n3ccsc3n2)cc1 (centres undefined)
→ nt	-0.7	2.0%	nt	18.1	nt
Cc1nc(-c2cccnc2)sc1C(=O)Nc1cccc(C(F)(F)F)c1
→ -6.7	0.3	-2.9%	-2.0	9.3	-1.4
O=C(Nc1cccc(Cl)c1)c1ccncc1
→ -1.6	0.5	1.3%	4.7	2.5	-3.8
O=C(Nc1cccc(-c2csc(Nc3cccc(C(F)(F)F)c3)n2)c1)c1ccccc1
→ 5.0	-0.6	?	-1.8	28.6	-0.7
Cc1ccc2cc3cc(C(=O)NCc4ccco4)oc3nc2c1
→ -0.9	-0.4	3.5%	-11.8	17.0	3.5
CCOc1cc(CN2CCN(c3ncccn3)CC2)ccc1OC
→ 1.4	-0.2	-0.7%	-4.5	-12.4	?
CC(C)c1ccc(Nc2ccc(C(=O)O)cc2[N+](=O)[O-])cc1
→ -17.9	-1.4	0.9%	3.6	-23.0	0.7
CCN(CC)CCNC(=O)CN1C(=O)CSc2ccc(S(=O)(=O)N3CCOCC3)cc21
→ 3.1	-0.3&-1.0	0.3%&0.7%	7.1	-7.1&4.8	-3.8
O=C(c1ccccc1)C(O)(CN1CCCCC1)c1ccccc1 (centres undefined)
→ 8.1	-0.7	8.0%	-2.2	8.2	-5.9
O=C(CSc1ccccc1)NCc1ccc2c(c1)CCN2C(=O)c1ccc(F)cc1
→ nt	2.7	1.3%	nt	28.7	nt
CCOC(=O)C(C)n1cnc2scc(-c3ccc(C)cc3)c2c1=O (centres undefined)
→ -18.6	1.2	3.4%	nt	-6.5	-1.1
Cc1ccc(NS(=O)(=O)c2ccc(C)c(C(=O)NCC(c3ccccc3)N(C)C)c2)cc1 (centres undefined)
→ -7.8	0.9	-1.8%	nt	-4.3	-3.6
N/C(=N/OCC(=O)Nc1cccc2ccccc12)c1nonc1N
→ 3.3	-0.9	-4.9%	-3.7	-1.2	2.5
CN(C)c1nc(=S)nc(NCc2ccccc2)[nH]1
→ 1.9	0.5	0.8%	9.4	9.3	-4.0
O=C(CS(=O)(=O)c1c[nH]c2ccccc12)N1CCCCCC1
→ 4.6	0.2	3.3%	-18.1	2.0	-2.6
CCOC(=O)N1CCN(C(=O)/C(=C/c2ccc(Cl)cc2)NC(=O)c2ccccc2)CC1
→ 5.4	1.2	-3.4%	0.0	5.3	1.9
Cc1ccc(NC(=S)N2CCN(S(C)(=O)=O)CC2)cc1C
→ 8.0	0.2	0.8%	7.3	1.2	4.3
CCc1cc(C(=O)Nc2ccc(S(=O)(=O)NC3=NCCCCC3)cc2)sc1C
→ -12.5	2.6	-1.8%	-19.4	35.3	-1.3
Cc1ccc2c(c1)[C@H]1[C@H](CO2)[C@H](c2ccccc2)[C@]2(C)C(=O)N(Cc3ccco3)CC(=O)N12
→ -17.5	-0.5	1.6%	-5.5	13.1	-1.1
Oc1ccc(/C=N/Nc2nccnc2Cl)cc1
→ -27.9	0.1	0.9%	-27.8	-1.9	0.0
COCc1c(C(=O)N/N=C/C2CC=CCC2)nnn1-c1nonc1N (centres undefined)
→ -1.5	-0.1	2.7%	-2.1	-27.6	-0.1
Cc1ccc(C)c(NC(=O)CN(C)C(=O)c2ccc(COc3ccccc3)cc2)c1
→ -7.1	-0.3	3.0%	1.5	15.4	0.4
C=CCOc1c(Br)cc(CNCCCN2CCOCC2)cc1OC
→ 1.4	-0.4	-1.1%	nt	1.5	0.4
Cc1nc2ccccc2c(=O)n1-c1ccc(NS(=O)(=O)c2ccc(F)cc2F)cc1
→ 0.6	-0.2	0.5%	3.8	-1.2	-1.8
Cc1c(Cc2ccccc2)c(=O)oc2cc(O)cc(O)c12
→ 6.8	4.8	1.7%	-3.3	11.8	-0.2
Cc1nn(C2CCS(=O)(=O)C2)c(Cl)c1/C=C/C(=O)OCC(=O)Nc1ccc2c(c1)OCO2 (centres undefined)
→ -1.3	-0.3	-0.1%	5.7	-2.9	-1.8
Cc1ccc(S(=O)(=O)NC(=O)c2ccc(F)cc2)c(C)c1
→ 1.5	-0.2	0.2%	-0.7	-2.0	-3.9
Cc1ccc(C(=O)Nc2ccc(Br)cc2)cc1S(=O)(=O)Nc1ccccn1
→ -13.6	-0.2	?	7.8	-6.4	-1.5
CCN1CCN(C(c2nnnn2Cc2ccc3c(c2)OCO3)C(C)C)CC1 (centres undefined)
→ 2.2	-0.3	-1.5%	1.1	1.0	-6.0
CCOC(=O)C1CCN(C(=O)COC(=O)c2nn(C)c(=O)c3ccccc23)CC1
→ 4.1	0.8	1.9%	-0.2	-7.5	-4.0
COc1ccc(CNC(=S)NCc2ccc(Cl)cc2)cc1OC
→ -5.9	0.4	-0.1%	?	-27.7	2.8
CCOc1ccc(S(=O)(=O)N2CCC(C(=O)NCc3cccnc3)CC2)cc1C
→ -0.4	-0.8	-0.8%	2.3	1.9	-3.8
CCC(C)Sc1nc2c(cnn2-c2ccc(C)c(C)c2)c(=O)[nH]1 (centres undefined)
→ 3.6	-0.6	2.1%	-2.1	21.0	-2.8
Cc1ccc(C)c(Cn2c(=O)c3c(nc4n3CCN4Cc3ccco3)n(C)c2=O)c1
→ -25.1	1.3	1.7%	?	-4.6	-2.1
CCOC(=O)c1c(C)[nH]c(C)c1S(=O)(=O)N(C)CC(=O)NCc1ccc(C)cc1
→ -0.1	-0.8&-1.1	-0.2%&0.3%	3.3	-8.2&5.2	-1.8
CN1C(=O)NC(NC(=O)c2ccco2)(C(F)(F)F)C1=O (centres undefined)
→ 7.5	-0.3	-0.3%	7.1	7.5	-1.1
O=C(CCC1N=C2c3ccccc3N=C(SCc3cccc(Cl)c3)N2C1=O)N1CCN(c2ccccc2)CC1 (centres undefined)
→ nt	0.3	-0.9%	nt	-8.7	nt
Cc1ccc(NC(=O)C2CCN(S(=O)(=O)c3ccc4c(c3)C(C)(C)C(=O)N4C)CC2)c(C)c1
→ 3.8	-0.2	1.1%	-20.1	-17.1	0.1
Cc1cc(S(=O)(=O)N2CCN(C(=O)CCC(=O)N3CCOCC3)CC2)ccc1Br
→ 3.5	nt	0.5%	-3.1	nt	-0.9
O=C(Nc1ccc(N2CCOCC2)cc1N1CCOCC1)c1ccc(Cl)cc1
→ 0.3	-0.1	4.2%	-3.1	-2.5	-1.2
O=C(NCc1cccnc1)C1CC(=O)N(c2ccc(Cl)cc2)C1 (centres undefined)
→ 23.8	2.1	-0.3%	1.3	-13.7	-1.9
C=CCNC(=S)NNC(=O)c1csc(C)c1C
→ 22.7	-0.5	-1.2%	7.5	-5.3	-5.0
O=C(Nc1ccccc1C(=O)OC1CCOC1=O)c1ccco1 (centres undefined)
→ -1.8	-0.1	-1.3%	1.5	4.1	0.2

The results go on:
Results follow in this order: Six1-Eya2 inh	TRPML1 ag	PINK1 expr mod	CtBP-E1A inh	TRPML1 blocker	D2 agonist
Cc1ccc(-n2c(=O)[nH]c3c(oc4ccccc43)c2=O)cc1
→ 6.8	3.4	1.4%	10.5	7.9	-5.4
CC(NC(=O)Cc1ccc(Br)cc1)c1ccccc1 (centres undefined)
→ 5.1	-0.8	3.7%	nt	7.0	5.3
COc1cc(O)c(C(CC(=O)N2CCCC(C)C2)c2ccc(N(C)C)cc2)c(OC)c1 (centres undefined)
→ ?	0.7	1.0%	?	-5.8	-4.5
Cc1ccc2oc(=O)c3cnn(CC(=O)Nc4cc(-c5cccc(F)c5)no4)c3c2c1
→ 3.8	0.0	1.3%	8.3	41.6	3.5
CCOC(=O)Cn1c(=O)n(C2CCCCC2)c2nc(-c3cccc(OC)c3)nc(C(N)=O)c21
→ nt	0.3	4.2%	nt	-15.1	nt
CC1(c2ccc(OC(F)F)cc2)NC(=O)N(CC(=O)Nc2ccc(OC(F)F)cc2)C1=O (centres undefined)
→ -0.9	12.3	4.5%	5.3	-27.1	-2.7
